# H5N1 antiviral = antiviral screen in MDCK cells, H5N1 avian flu. AID 740. cytopathic effect, luminescence, 72 h; stronger effect = higher value; no value below 0 was filed and about half of the inactive calls have no number; reference of the scale not given here. 96,000 compounds, 0.07% hits. inhibition, % at 50 µM; in the data active means inhibition above about 25%
# * hit, by the source's call; i = inactive. Not all compounds are listed; the hit share may differ from the screen's.
SMILES,H5N1 antiviral
C=CCSc1nc(N)c(C#N)c(-c2ccc(C)cc2)c1C#N,i
O=C(CN(c1ccccc1)S(=O)(=O)c1ccc(F)cc1)N1CCCCCC1,3.5
CN(C)c1ccc(CNCCC2CCOC(C)(C)C2)cc1 (configuration not stated),i
C=CCNc1nc(-c2ccc(OC)cc2OC)cs1,0.9
O=S1(=O)C=C(SCCN2CCCC2)c2ccccc21,4.4
Cc1cc(C)c2c(n1)sc1c(=O)[nH]c(SCc3ccccc3)nc12,i
CCCN1CCN(CCCNC(=O)C2CCN(c3nnc(-n4cccc4)s3)CC2)CC1,0.2
COc1ccc(CC(C(=O)Nc2cc(C)ccc2C)/C(N)=N/O)cc1 (configuration not stated),1.1
CCc1nc2sc(C)c(C)c2c(=O)n1CCO,0.4
CSc1nnc(Cc2sc(-c3ccccc3)nc2-c2ccccc2)o1,5.7
Cc1cccc(NC(=O)c2ccccn2)c1C,i
O=C(O)c1ccc(OCCn2ccnc2)cc1,i
COc1ccc2c(c1)c(=O)oc1cc(OCC(=O)NC3CCCCC3)ccc12,1.0
Cc1ccccc1Sc1c(C#N)c(-c2ccccc2)nn1C,0.8
Cc1sc2nc(SCC(=O)N(C)Cc3ccccc3)n(-c3ccccc3)c(=O)c2c1C,0.6
COc1ccc(CCN2C(=NC(=O)CCC(=O)O)SC3CS(=O)(=O)CC32)cc1 (configuration not stated),2.2
C=CCN1C(=O)N(/C=C/C)c2cccc3cccc1c23,0.9
Cc1ccc(S(=O)(=O)Nc2ccc3nc(-c4cccn4C)[nH]c3c2)cc1,i
C=CCNC(=S)N/N=C(\C)c1ccccn1,0.3
CCOC(=O)c1cn(-c2ccc(F)c(F)c2F)c2c(F)c(F)c(F)cc2c1=O,0.2
COc1ccc(NC(=O)C(c2ccccc2)N(C)C(=O)CNC(C)=O)cc1 (configuration not stated),0.8
CCN(CC)c1nc(Nc2ccccc2)nc(Oc2ccc(C(=O)OC)cc2)n1,0.3
Cc1ccc(CC(=O)NC(C)CCc2ccccc2)cc1 (configuration not stated),0.3
COc1cccc(-c2nnc(SCC(=O)N3CCCc4ccccc43)o2)c1,1.1
Cc1nc2ccccc2n1C1CCN(Cc2nnnn2CCc2ccccc2)CC1,1.5
CC(=O)c1ccc(NC(=O)/C(=C\c2ccccc2)NC(=O)/C=C/c2ccccc2)cc1,i
Cn1c(-c2ccccc2)cnc1SCC(=O)NCc1ccco1,0.2
O=C(O)CNC(=O)c1ccc(OC(F)F)cc1,i
Cc1ccccc1OCC(=O)Nc1ccc2c(c1)Cc1ccccc1-2,0.4
C/C(=C/C=N/Nc1nc(N2CCCCC2)nc(N2CCCCC2)n1)c1ccccc1,i
c1ccc(-c2csc(N3CCCCCC3)n2)cc1,2.0
Cc1ccccc1NC(=O)Cn1nc(-c2ccccc2)nc1-c1ccccc1,0.4
Nc1c(S(=O)(=O)c2cccs2)c2nc3ccccc3nc2n1Cc1ccccc1,1.1
CCCOc1ccc(C(=O)NNC(=S)NC(=O)c2cc(-c3ccc(Cl)cc3)nc3ccccc23)cc1,4.7
CCCn1c(SCC(=O)Nc2ccccc2N2CCCCC2)nc2c1c(=O)n(C)c(=O)n2C,0.9
CCCC(=O)NNc1cc(=O)c2c(=O)n(C)c(=O)n(C)c2[nH]1,i
CN(C(=O)c1ccno1)c1nnc(-c2cccnc2)s1,0.3
COc1cc2c(cc1NC(=O)c1cncc(Br)c1)oc1ccccc12,i
CS(=O)(=O)N(CCc1ccccc1)CC(=O)N1CCN(c2ccccc2F)CC1,0.8
CCN1CCN(c2nc3ccccc3s2)CC1,i
CCOCC(O)CS(=O)Cc1ccccc1 (configuration not stated),0.7
CN(C)c1ccc(NC(=O)CSc2nc3ccccc3c(=O)n2C2CCCCC2)cc1,i
O=C(NCCC1=CCCCC1)C1CCN(Cc2cnn(-c3ccccc3)c2-n2cccc2)CC1,i
CC(C)(C)C1CCC2(CC1)NC(CO)(CO)CO2 (configuration not stated),1.4
COc1ccc(-c2noc(CCC(=O)NCCN3CCN(c4ccccc4F)CC3)n2)cc1,i
CSc1nc(C)cc(C)c1S(=O)(=O)c1ccccc1C,1.5
O=C1c2ccccc2C(O)N1Cc1ccc2c(c1)OCO2 (configuration not stated),1.0
COc1cc(NC(=O)C2CCC(CNc3c(N4CCC(C)CC4)c(=O)c3=O)CC2)cc(OC)c1 (configuration not stated),0.3
CCc1ccc(NC(=O)c2cc(CC(C)C)on2)cc1,0.5
O=C(NNC(=O)c1sccc1-n1cccc1)c1ccccc1,0.2
Cn1c(C(F)(F)F)nc2c(=O)oc3ccccc3c21,i
CCN1C(=O)c2ccccc2S(=O)c2ccc(C(=O)NCc3ccccn3)cc21 (configuration not stated),0.5
CCOC(=O)c1cc2occc2n1CC(=O)NC1CCC(C)CC1 (configuration not stated),0.0
CC1CCN(S(=O)(=O)c2ccc(NC(=O)CN3CCOCC3)cc2)CC1,1.6
CC(=O)Nc1ccc(-n2nnnc2SCC(=O)N2CCN(C(=O)c3ccco3)CC2)cc1,0.5
O=c1c2ccccc2nc(CN2CCOCC2)n1-c1ccccc1F,2.0
CCOC(=O)c1c(NC(N)=O)sc(C)c1C,i
Cc1nnc2ccc(N3CCN(C(=O)c4ccccc4)CC3)nn12,1.1
Cc1noc(C)c1CSc1nc2ccccc2s1,1.4
CCn1c(SCC(=O)NCCc2ccccc2)nnc1-c1ccco1,i

# More structures:
SMILES,H5N1 antiviral
CN1CCN(S(=O)(=O)c2ccc(N3CCN(S(=O)(=O)/C=C/c4ccccc4)CC3)nc2)CC1,0.5
CCc1ccccc1Nc1nc(N)nc(CSCC(=O)c2cc(C)n(C)c2C)n1,i
COc1ccc2c(c1)c(C(O)CN1CCN(Cc3ccc4c(c3)OCO4)CC1)c(C)n2C (configuration not stated),i
c1cnc(NCCNc2ncccn2)nc1,0.4
COC(=O)c1cccc(NC(=O)c2cc3sccc3n2C)c1,i
S=C(Nc1ccccc1)N1CCn2c1nc1ccccc12,69.1*
CCOC(=O)c1nnn(-c2nonc2N)c1CN1CCc2ccccc2C1,i
CC(C)(C)C1CCc2[nH]c3ccccc3c(=O)c2C1 (configuration not stated),i
N#CCCN1CCNCC1,0.5
CC1CCN(C(=O)c2ccc(NS(C)(=O)=O)cc2)CC1,i
CC1CCCC(NC(=O)c2ccc3c(=O)n(CC4CCCO4)c(=O)[nH]c3c2)C1C (configuration not stated),i
COC(=O)c1ccccc1S(=O)(=O)N(Cc1ccco1)Cc1cc2cc(OC)ccc2[nH]c1=O,0.7
Cc1cc(C(=O)Nc2cccnc2)cs1,0.1
CC(=O)c1ccc(NC(=O)CCNS(=O)(=O)c2cccc3nonc23)cc1,i
CCn1c(-c2ccc(Cl)cc2)n[nH]c1=S,i
CCN(CC)C(=O)c1sc(N)c(C#N)c1C,0.2
C=CCOC(=O)C1=C(C)NC(=O)NC1/C=C/c1ccccc1 (configuration not stated),0.6
Cn1c(SCc2nnc3n2CCCCC3)nc2ccccc21,1.5
CC1CCCCN1C(=O)/C(=C\c1ccccc1)c1ccccc1 (configuration not stated),2.2
COCCCNC(=O)CN1CCN(Cc2ccc(Cl)cc2)C1=O,0.4
CC(C)CC(NC(=O)OC(C)(C)C)C(=O)NC(C(=O)NC(C)C(N)=O)C(C)C (configuration not stated),i
CCCCC1CCC(c2nc(-c3cccnc3)no2)CC1 (configuration not stated),1.1
Cc1ccc(Nc2nc(C(=O)NCc3ccco3)cs2)cc1,i
COc1ccc(Cl)cc1S(=O)(=O)N1CCN(Cc2ccc3c(c2)OCO3)CC1,1.4
CCN(CC)Cc1c(O)ccc2c(C)c(CC(=O)OC)c(=O)oc12,i
CCOc1ccc(-c2nc(C#N)c(N3CCOCC3)o2)cc1,2.7
CCN(CC)CCNC(=O)c1ccccn1,0.9
COCC(=O)Nc1cc(C(=O)Nc2cccc(C)c2C)ccc1Cl,i
CC1(C)Cc2ccccc2C(NNC(=O)c2ccncc2)=N1,0.2
COc1ccc(C(=O)Nc2cc(OC)c(NC(=O)c3ccco3)cc2OC)cc1,i
CCCCn1c(NCc2ccccc2NS(=O)(=O)c2ccc(C)cc2)nc2ccccc21,0.5
CCCCCCn1c(O)c(C=NC2CCCCC2N)c(=O)[nH]c1=O (configuration not stated),i
CCNC(=S)N(Cc1ccc2c(c1)OCO2)C1CC(=O)N(c2ccc(F)cc2)C1=O (configuration not stated),1.6
COc1cc(NC(=O)c2ccc3c(c2)OCO3)ccc1NC(=O)C(C)C,i
O=C(NC1CC2CCCC(C1)N2Cc1ccco1)NC12CC3CC(CC(C3)C1)C2 (configuration not stated),i
Cc1ccc(C(=O)Cn2nnc3ccccc32)cc1,0.3
CN(CC(=O)NCc1cccs1)S(=O)(=O)c1cccc2nsnc12,i
CCSc1ncnc2c(C#N)c3n(c12)CCCCC3,13.2
COc1ccc(CNC(=O)Cn2nc(C(F)(F)F)c3c2CCC3)cc1,0.5
COc1ccccc1N1CCN(CC(O)COc2ccc3c(c2)CCC3)CC1 (configuration not stated),i
COc1cc(NS(=O)(=O)c2ccc(NC(=O)COc3ccc(C)cc3)cc2)nc(OC)n1,1.4
CCOc1ccc(OCCCC(=O)NC2=NCCS2)cc1,i
O=c1c2ccccc2oc2nc3n(c(=O)c12)CCCS3,1.8
CCOC(=O)C(Oc1ccc(=O)n(-c2ccccc2)n1)C(C)=O (configuration not stated),i
Nc1c(C(=O)NCc2ccccc2)nnn1Cc1cccc(Cl)c1,i
CC(C)Cc1nc2oc3c(NCCCN4CCOCC4)ncnc3c2c2c1CCC2,i
CCn1c(SCC(=O)c2ccccc2)nnc1-c1ccoc1C,i
O=C(C1CCCCN1S(=O)(=O)c1ccccc1)N1CCN(Cc2ccccc2)CC1 (configuration not stated),i
CC1=C(C(N)=O)C(c2cccc(O)c2)n2nc(CCCO)nc2N1 (configuration not stated),0.4
COc1ccccc1C1N(c2ccc(F)cc2)C(=O)C2CCCN21 (configuration not stated),i
COCCN1CN=C(Nc2nc3ccccc3s2)NC1,i
Cc1ccc2nc(/C(C#N)=C\c3cc(C)n(-c4cccc([N+](=O)[O-])c4)c3C)[nH]c2c1,i
CCOC(=O)CSC1=C(C#N)C(c2ccc3c(c2)OCO3)CC(=O)N1 (configuration not stated),i
O=C(Cn1c(=O)n(Cc2ccco2)c(=O)c2c3c(sc21)CCCCC3)c1ccccc1,0.4
CCC(=O)Nc1ccc(C(=O)N/N=C/c2ccccc2[N+](=O)[O-])cc1,2.1
CCCN1Cc2cccc(C(=O)NCc3cccs3)c2C1=O,2.8
Cc1cc(NC(=O)c2ccc(Cl)cc2)c(C(C)C)cc1O,i
Cc1ccc(CC(=O)OCC(=O)NC2CCCC(C)C2C)cc1C (configuration not stated),i
CC(C)OC(=O)c1cccnc1SCC(=O)N(C)c1ccccc1,0.1
Cc1nccc(-c2ccc(-n3cnc4ccccc43)cc2)n1,i

# A draw from above in order of length of the SMILES, low to high:
SMILES,H5N1 antiviral
CCCN1Cc2cccc(C(=O)NCc3cccs3)c2C1=O,2.8
CCn1c(SCC(=O)c2ccccc2)nnc1-c1ccoc1C,i
Nc1c(C(=O)NCc2ccccc2)nnn1Cc1cccc(Cl)c1,i

# The results go on.
SMILES,H5N1 antiviral
CCCCn1c(CNC(=O)Cc2ccccc2)nc2ccccc21,0.8
CC(=O)N=c1sc2cc(C)ccc2n1C,0.1
COC(=O)c1cscc1NC(C)=O,i
O=c1c2ccccc2nc(-c2ccccc2)n1-c1cccnc1,i
COc1ccccc1N/C(=N/S(=O)(=O)c1ccc(Cl)cc1)c1ccccc1,0.4
COc1ccc(-c2nnc(SCC(=O)Nc3ccc4c(c3)OCCO4)n2N)cc1OC,i
CCOc1ccc(NC(=O)CN2CCN(CC(=O)Nc3ccc(C(=O)OC)cc3)CC2)cc1,i
O=C(c1cc2ccccn2n1)N1CCN(c2cccc(C(F)(F)F)c2)CC1,i
S=C(Nc1ccccc1)N1CCN(C2CCCCC2)CC1,i
CCOc1ccc2nc(NC3=NC(c4ccc(OC)cc4)CC(=O)N3)nc(C)c2c1 (configuration not stated),i
Cc1ccc(CCNC(=O)C2CCN(S(=O)(=O)N3CCCC3)CC2)cc1,i
O=c1c2ccccc2c(-c2ccccc2)nn1Cc1ccc(Cl)cc1,i
CN(Cc1ccccc1)C(=O)[C@H]1CCC(=O)N1Cc1ccco1,0.2
COc1ccc(C(=O)NC(=S)NCc2ccco2)cc1OC,0.0
O=C(O)c1[nH]c2ccc(Cl)cc2c1CC(=O)N1CCN(c2ccccc2)CC1,0.7
Cc1ccccc1-n1c(C)cc(/C=N/Nc2ccc([N+](=O)[O-])cn2)c1C,i
CC(C)NC(=O)CSc1nnc(-c2ccc(C(C)(C)C)cc2)n1C,1.1
COc1cccc(OCCCOc2ccccc2C(C)C)c1,i
CC(=O)N(Cc1cc(=O)[nH]c2ccccc12)c1ccc(C)cc1,i
COC(/C=C/Nc1ccc(Br)cc1)=C(C#N)C#N,i
CCn1c(SCC(=O)O)nnc1-c1ccccc1,i

# Compounds listed so far with an aryl thioether with sulfur outside any ring:
SMILES,H5N1 antiviral
C=CCSc1nc(N)c(C#N)c(-c2ccc(C)cc2)c1C#N,i
Cc1cc(C)c2c(n1)sc1c(=O)[nH]c(SCc3ccccc3)nc12,i
CSc1nnc(Cc2sc(-c3ccccc3)nc2-c2ccccc2)o1,5.7
Cc1ccccc1Sc1c(C#N)c(-c2ccccc2)nn1C,0.8
Cc1sc2nc(SCC(=O)N(C)Cc3ccccc3)n(-c3ccccc3)c(=O)c2c1C,0.6
COc1cccc(-c2nnc(SCC(=O)N3CCCc4ccccc43)o2)c1,1.1
Cn1c(-c2ccccc2)cnc1SCC(=O)NCc1ccco1,0.2
CCCn1c(SCC(=O)Nc2ccccc2N2CCCCC2)nc2c1c(=O)n(C)c(=O)n2C,0.9
CN(C)c1ccc(NC(=O)CSc2nc3ccccc3c(=O)n2C2CCCCC2)cc1,i
CSc1nc(C)cc(C)c1S(=O)(=O)c1ccccc1C,1.5
CC(=O)Nc1ccc(-n2nnnc2SCC(=O)N2CCN(C(=O)c3ccco3)CC2)cc1,0.5
Cc1noc(C)c1CSc1nc2ccccc2s1,1.4
CCn1c(SCC(=O)NCCc2ccccc2)nnc1-c1ccco1,i
Cn1c(SCc2nnc3n2CCCCC3)nc2ccccc21,1.5
CCSc1ncnc2c(C#N)c3n(c12)CCCCC3,13.2
CCn1c(SCC(=O)c2ccccc2)nnc1-c1ccoc1C,i
CC(C)OC(=O)c1cccnc1SCC(=O)N(C)c1ccccc1,0.1
COc1ccc(-c2nnc(SCC(=O)Nc3ccc4c(c3)OCCO4)n2N)cc1OC,i
CC(C)NC(=O)CSc1nnc(-c2ccc(C(C)(C)C)cc2)n1C,1.1
CCn1c(SCC(=O)O)nnc1-c1ccccc1,i

# Source: PubChem BioAssay
